# GCN5L2 inh = qHTS Assay for Inhibitors of GCN5L2; AID 504327, 2011; GCN5L2 HAT assay, ThioGlo1 CoA-SH fluorescence; actives 0.21% (n = 390,000); Potency, µM (series often up to 58.9 µM), for the others: top-dose activity change, negative = inhibition, hits mostly inhibitors; Histone acetyltransferase KAT2A (Homo sapiens), Q92830; active means well fitted inhibition curve with a large enough effect; inconclusive means small, poorly fitted or top-dose-only effect, or another doubt; inactive means no such curve, though single readings can be large or run the other way
# Target sequence (Q92830 whole entry, looked up): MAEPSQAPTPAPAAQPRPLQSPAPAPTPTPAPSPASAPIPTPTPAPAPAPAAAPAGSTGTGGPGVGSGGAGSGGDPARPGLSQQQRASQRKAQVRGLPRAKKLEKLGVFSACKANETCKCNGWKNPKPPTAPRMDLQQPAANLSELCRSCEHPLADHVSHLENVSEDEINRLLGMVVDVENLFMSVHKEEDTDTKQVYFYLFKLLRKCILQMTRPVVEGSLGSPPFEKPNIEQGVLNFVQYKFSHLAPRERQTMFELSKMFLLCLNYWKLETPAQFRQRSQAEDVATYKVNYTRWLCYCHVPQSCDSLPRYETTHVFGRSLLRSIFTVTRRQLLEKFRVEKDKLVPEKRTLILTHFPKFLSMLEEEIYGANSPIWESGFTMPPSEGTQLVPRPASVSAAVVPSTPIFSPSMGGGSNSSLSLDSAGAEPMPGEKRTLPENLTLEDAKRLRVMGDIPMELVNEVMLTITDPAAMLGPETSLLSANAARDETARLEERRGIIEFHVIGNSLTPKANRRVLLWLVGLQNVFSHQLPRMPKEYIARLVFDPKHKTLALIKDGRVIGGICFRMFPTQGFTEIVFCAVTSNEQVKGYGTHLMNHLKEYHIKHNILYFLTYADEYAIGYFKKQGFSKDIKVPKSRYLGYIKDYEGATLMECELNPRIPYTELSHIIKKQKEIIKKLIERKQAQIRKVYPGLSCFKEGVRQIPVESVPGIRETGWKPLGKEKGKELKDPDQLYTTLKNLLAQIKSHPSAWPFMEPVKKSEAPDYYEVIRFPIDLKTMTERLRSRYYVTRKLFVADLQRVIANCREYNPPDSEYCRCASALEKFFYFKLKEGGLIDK
#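 qHTS, 1536-well. 20nM enzyme, pH 7.5 HEPES/EDTA/Tween-20 buffer; 15 min compound preinc., RT. Start: 75uM H3(1-25), 70uM AcCoA, 50uM ThioGlo1. Read Ex340/Em540 at t=0 (autofluorescence flag) and t=20 min.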
# Starred values were filed as active, the others as inactive; ? = inconclusive; & = joins results of further samples; [ ] = dose if it differs, or a comment. On the % scale 0 is the no-effect control and ±100 the full control effect; potency means the concentration at half of the fitted maximal effect. Some of the compounds tested, and most or all hits are left out here.
Structure | GCN5L2 inh
COCc1ccc([C@@H]2C[C@H]3CN(Cc4cccnc4)C(=O)[C@]34CCCN24)o1 | -3%
CCc1ccccc1NC(=O)C(=O)c1cc(C)n(-c2ccccc2F)c1C | -4%
O=C1CCCCC(=O)N(c2ccccc2)c2ccccc21 | -6%
O=C(NCCS(=O)(=O)NC1CCCCC1)c1ccc2c(c1)OCO2 | -5%
O=C(NCc1ccco1)C1CC2CCC1C2 (stereo unspecified) | -6%
Cc1cccc(N2CC(C(=O)Nc3nnc(SCC(=O)NCC4CCCO4)s3)CC2=O)c1 (stereo unspecified) | ?
CN(C)C(CNc1ncnc2sccc12)c1cccs1 (stereo unspecified) | -8%
COc1cc(NC(=O)COC(=O)/C=C/c2ccc(Cl)cc2Cl)cc(OC)c1 | -4%
COc1ccc(CNC(=O)c2c[nH]c3c(OC)cc(OC)cc3c2=O)cc1 | -5%
COc1ccc(C(=O)CSc2nnc3ccc(-c4ccccn4)nn23)cc1 | -3%
COc1cc(NC(=O)C2CC2)c(OC)cc1NC(=O)CCC(=O)NC1CCN(Cc2ccccc2)CC1 | -7%
COc1ccc(-c2cn(CCO)c(-c3ccc(Cl)nc3)n2)cc1 | -1%
CCc1ccc(-c2cc3c(=O)n(CC(=O)NCCN4CCCCC4C)nc(C)n3n2)cc1 (stereo unspecified) | 2%
Cc1ccc(CCNC(=O)C2CCCN(S(=O)(=O)N3CC(C)CC(C)C3)C2)cc1 (stereo unspecified) | -5%
FC(F)(F)c1ccccc1-c1ccc2ncnc(NC3CCNCC3)c2c1 | 2%

# Pulled by structure from the entries so far (three):
Structure | GCN5L2 inh
O=C(NCc1ccco1)C1CC2CCC1C2 (stereo unspecified) | -6%
COCc1ccc([C@@H]2C[C@H]3CN(Cc4cccnc4)C(=O)[C@]34CCCN24)o1 | -3%
CN(C)C(CNc1ncnc2sccc12)c1cccs1 (stereo unspecified) | -8%

# Next results follow:
Structure | GCN5L2 inh
CC(C)CCNC(=O)[C@@H](c1ccccc1)N1Cc2ccccc2C1=O | 2%
O=C(Cn1cccc(C(F)(F)F)c1=O)c1ccc(Cl)cc1 | -11%
CO[C@@H]1C=CO[C@]2(C)Oc3c(C)c(O)c4c(O)c(c(C=NN5CCN(C)CC5)c(O)c4c3C2=O)NC(=O)C(C)=CC=C[C@H](C)[C@H](O)[C@H](C)[C@H](O)[C@H](C)[C@H](OC(C)=O)[C@H]1C | -1%[21.4 µM]
Cc1ccc(-c2noc(C3CCCN(C(=O)c4ccc(F)cc4F)C3)n2)cc1 (stereo unspecified) | -14%
CCc1c(C)nn(C(=O)/C(C#N)=C\N(C)C)c1C | -2%
Cc1c(NC(=O)Cc2ccccc2)cccc1C(=O)NN1C(=O)c2ccccc2C1=O | 1%
COc1ccc2nc(NC(=O)CS(=O)(=O)Cc3ccccc3)sc2c1 | 0%
CCCCSc1nc(NCc2ccco2)c2c3c(sc2n1)COC(C)(C)C3 | -18%
CC(=O)c1ccc(OCC(O)CN2CCN(CCN3C(=O)c4cccc5cccc(c45)C3=O)CC2)cc1 (stereo unspecified) | 2%
CC(C)(C)NC(=O)C(c1ccc(-c2ccccc2)cc1)N(C[C@H]1CC[C@@H]([C@@H]2CC[C@H](CO)O2)O1)C(=O)c1ccc2ccccc2c1 (stereo partly specified) | -8%
COc1cccc(OCC(O)CN2CCN(c3ncccn3)CC2)c1 (stereo unspecified) | -3%
COc1cc(C(=O)N(C)Cc2cccc(OC)c2OC)ccc1OCC(=O)Nc1cccc(C(F)(F)F)c1 | -25%
C=C(C)CN1C(=O)C(O)(CC(=O)c2ccc3c(c2)OCCO3)c2ccccc21 (stereo unspecified) | -2%
CCOc1ccc(OCC)c(NC(=O)CSCC(=O)O)c1 | 0%
COCCn1c(SCC(=O)Nc2ccccc2OC)nc2ccccc2c1=O | -10%
Cc1nnc(SCC(=O)Nc2cc(Cl)ccc2Cl)n1CC1CCCO1 (stereo unspecified) | 0%
COC(=O)C1=C(C)N(Cc2ccccc2)C(=NCC(C)C)N[C@H]1c1cccc(C(F)(F)F)c1 | 1%
COC(=O)C1=C(C)NC2=C(C(=O)c3ccccc32)C1c1ccc(-c2ccc(C(=O)O)cc2)o1 (stereo unspecified) | -13%
Cc1cccc(OCc2n[nH]c(=S)o2)c1 | -5%
O=C(c1ccc(N2CCCC2=O)cc1)N1CCN(c2ccccc2)CC1 | -2%
CCC(=O)Nc1nonc1-c1nc2ccccc2n1N(C(=O)CC)C(=O)CC | 1%
Cc1cc(C)n(C(=O)c2ccccc2[N+](=O)[O-])n1 | 0%
COC(=O)Cn1ncc(N2C3CC(CC(C)(C)C3)C2C)c(Cl)c1=O (stereo unspecified) | 1%
CC(C)n1nnnc1C(c1ccc(F)cc1)N1CCN(C2CCCC2)CC1 (stereo unspecified) | 0%
Nc1nnc(SCc2nnc(-c3ccccc3)o2)s1 | -2%
Cc1ccc(S(=O)(=O)N2CCOC2CNC(=O)C(=O)NCCCN2CCOCC2)cc1 (stereo unspecified) | -5%
COC(=O)C1=C(C)N(c2ccccc2)C(=S)NC1c1ccccc1C(F)(F)F (stereo unspecified) | -6%
COc1ccc(C(=O)OC(C)CN2CCOCC2)cc1OC (stereo unspecified) | 1%
Cc1ccc(C(=O)N2CCN(c3ncc(C(F)(F)F)cc3Cl)CC2)s1 | -2%
Cc1[nH]nc(SCC(=O)N2CCCC2)c1[N+](=O)[O-] | -11%
O=C(COC(=O)c1ccc(Cl)nc1)Nc1ccc(N2CCCCC2)cc1 | 1%
CCC(=O)N1c2ccc(S(=O)(=O)CCC(=O)Nc3ccc(OC)cc3OC)cc2CC1C (stereo unspecified) | -22%&-1%
Cc1cc(C)nc(N(C#N)CC(=O)c2ccccc2)n1 | 0%
COC(CN(C)S(=O)(=O)c1cc2c3c(c1)CCN3C(=O)CC2)OC | -3%
COc1ccc(NC(=O)c2cc(S(=O)(=O)N3CCCC3)ccc2C)cn1 | -5%
Cc1cccnc1NC(=O)CNC(=O)COc1ccccc1 | -12%
Cc1cc(C)cc(OCCSc2nc(-c3cccs3)nc3cc(=O)[nH]n23)c1 | -7%
O=C(NCc1ccccc1Cl)C1CCN(C(=O)c2ccco2)CC1 | 0%
O=C(Cn1c(=O)n(-c2ccc(Cl)cc2)c(=O)c2sc3ccccc3c21)NC1CCCCC1 | -5%
CCOC(=O)Cc1ccc(NC(=O)NC(C)c2c(-n3cccc3)sc(C)c2C)cc1 (stereo unspecified) | -13%
CC(=O)Nc1ccc(C(=O)OCC(=O)Nc2ccccc2F)cc1 | -5%
Cc1cc(C)n(-c2cccc(Cl)c2C#N)n1 | -1%
CCOc1ccccc1OCC(=O)Nc1ccc(S(=O)(=O)Nc2nc(C)cc(C)n2)cc1 | 1%
Cc1cccc(NC(=O)CCn2cnnn2)c1 | -2%&1%
CCOC(=O)C1=C(CC)Nc2ccccc2N=C1NC(=O)c1oc2ccccc2c1C | -12%
O=C1NC2(CCc3ccccc32)C(=O)N1CCOc1ccc(Cl)cc1 (stereo unspecified) | -1%
CSc1ncccc1C(=O)Nc1ccc(C)cn1 | -1%
Cc1cccc(Nc2nnc(SCC(=O)Nc3cccnc3Cl)s2)c1 | -1%
CCOC(=O)c1ccc(NC(=O)CSc2ccc(-c3ccncc3)nn2)cc1 | -2%
COc1ccc(CCNC(=O)CCC(=O)Nc2ccccc2[N+](=O)[O-])cc1OC | -15%
OCCNCCNCc1ccccc1OCc1ccccc1 | -3%
CC(C)CN(C(=O)COc1ccc(Br)cc1C=O)C1CCS(=O)(=O)C1 (stereo unspecified) | -2%
CN(NC(=S)Nc1ccc(OC(F)F)cc1)C(=S)Nc1ccc(OC(F)F)cc1 | -2%
CC[C@]1(C(=O)OC)[C@H]2C(=O)N(C)C(=O)[C@H]2[C@H]2CN=C(SCc3ccc(OC)cc3)N21 | -1%
COC(=O)c1cccc(C(=O)Nc2cnc3ccccc3c2)n1 | -3%
CONc1nc2nonc2nc1NOC | -1%
COc1ccccc1NC(=O)CCSc1nnc(-c2ccncc2)o1 | -2%
O=C(COC(=O)c1c2c(nc3ccccc13)CCCCC2)c1ccc(Cl)s1 | -7%
Cc1cccc(C)c1NC(=O)C1CCCNC1 (stereo unspecified) | -10%
O=C(Nc1cccnc1)c1cccc(F)c1 | -7%

# Next part.
Structure | GCN5L2 inh
COc1ccc(Cl)cc1NC(=O)Cn1nc(-c2ccc(C)cc2)n(C)c1=S | 1%
CCOC(=O)C1CCN(Cc2cnc(Oc3ccc(N)cc3)s2)CC1 | -4%
O=C(CSc1nncs1)Nc1ccc2c(c1)OCCO2 | -4%
O=C(CNC(=O)OCc1ccccc1)Nc1ccc(F)cc1 | 0%
Nc1nccc(/C=C/c2ccc(Cl)cc2)n1 | 0%
O=C(NCCc1ccccc1)/C(=C\c1ccc([N+](=O)[O-])cc1)NC(=O)c1ccccc1 | 1%
CN(Cc1ccncn1)C(=O)CC1C(=O)NCCN1Cc1cccc(Oc2ccccc2)c1 (stereo unspecified) | 0%
Cc1cccc(-n2c(=O)c3ccccc3n(Cc3ccc(F)cc3)c2=O)c1 | -4%
O=C(CCl)Nc1cccn2ncnc12 | 1%
COc1ccc(NC(=O)c2ccccc2NC(=O)NC2CCCCC2)cc1 | -2%
Cc1cc(C(=O)OCC(=O)Nc2cc(S(=O)(=O)N(C)C)ccc2Cl)c2ccccc2n1 | -1%
Cc1cnc(CNC(=O)CC2C(=O)NCCN2Cc2cccc(F)c2F)cn1 (stereo unspecified) | -12%
CC(C)(C)C(=O)Nc1sc2c(c1C#N)CCCCC2 | -3%
C/C(NCCN1CCOCC1)=C(\C#N)C(N)=O | -2%
CC(C)CC(=O)NC(=S)Nc1ccc(N2CCOCC2)cc1 | -7%

# Another view of 2 compounds above:
> COc1ccc(NC(=O)c2ccccc2NC(=O)NC2CCCCC2)cc1
- GCN5L2 inh: -2%
> O=C(CNC(=O)OCc1ccccc1)Nc1ccc(F)cc1
- GCN5L2 inh: 0%

# Next part.
Structure | GCN5L2 inh
CCc1cc(=O)[nH]c(SCC(=O)NCc2ccc3c(c2)OCO3)n1 | -7%
COc1ccc(-n2c(SC(C)C(=O)Nc3ncc(Cl)cc3Cl)nc3ccccc32)cc1 (stereo unspecified) | -13%
Cc1nn(C2CCCCC2)c(N)c1-c1ccccc1 | -1%
COC(=O)c1c(Oc2ccc(Br)cc2)nnc(-c2ccccc2)c1-c1ccccc1 | -14%
CCOc1ccc(-c2cc3c(=O)n(CC(=O)Nc4cc(F)ccc4C)ccn3n2)cc1 | 3%
Cc1ccccc1Nc1c(-c2ccccc2O)nc2sccn12 | -7%
Cc1cccc(C)c1NC(=O)NC1(C(=O)NCCN2CCOCC2)CCCCC1 | -6%
CC(NC(=O)c1cccc(S(=O)(=O)N(C)C)c1)C1CC2CCC1C2 (stereo unspecified) | 3%
CCN(CC)S(=O)(=O)c1ccc(OC)c(NC(=S)Nc2ccc(C)c(C)c2)c1 | -6%
O=C(Nc1ccon1)Nc1cc(Cl)ccc1Cl | -18%
CCCCn1c(N)c(N(CC(C)C)C(=O)CCS(=O)(=O)c2ccc(C)cc2)c(=O)[nH]c1=O | -5%
CC(C)NC(=O)N(C)C[C@H]1Oc2c(NC(=O)Nc3ccccc3)cccc2C(=O)N([C@H](C)CO)C[C@@H]1C | 0%
O=C(NC(=O)c1cc(OCC(F)(F)F)ccc1OCC(F)(F)F)Nc1ccccc1 | -2%
Cc1ccc(-c2nc3ccccc3o2)cc1NC(=O)Cc1ccc(Cl)cc1 | 0%
O=C(CNC(=O)/C(=C\c1ccccc1)NC(=O)c1ccc(Br)cc1)OCc1ccccc1 | -16%
CCOc1ccc(S(=O)(=O)NC2CCCCCC2)cc1 | 0%
CCC1CN(C(=O)N2CCC(C(=O)N3CCN(c4ccccc4)CC3)CC2)c2ccccc2O1 (stereo unspecified) | -12%
O=C(c1cc2ccccc2oc1=O)N1CCN(CCc2ccccc2)CC1 | -8%
COc1ccc(-c2nsc3c(N4CCN(C(=O)c5ccco5)CC4)ncnc23)cc1 | -3%
O=C(Nc1ccccc1F)C1CCN(C(=O)Cc2ccccc2)CC1 | -5%
COc1ccc(S(=O)(=O)NCc2csc(-c3cccnc3)n2)cc1 | -16%
Cc1nn(C)c(C)c1/C=C/C(=O)c1ccccc1 | -9%
CN1CCN(c2ccc(NC(=O)COc3ccc(Cl)cc3Cl)cc2)CC1 | -1%
COc1ccc(C(=O)NCCCc2nc3ccccc3n2Cc2ccccc2C)cc1OC | -2%
Cc1cccc(NC(=O)CS(=O)(=O)c2cn(C)c3ccccc23)c1 | -4%
COc1ccc(NC(=O)c2cccc3c2C(=O)c2ccc(-c4ccc(F)cc4OCc4ccccc4)cc2S3(=O)=O)cc1 | -2%
C[C@H](CO)N1C[C@H](C)[C@@H](CN(C)CC2CCCCC2)Oc2c(NC(=O)C3CC3)cccc2C1=O | -6%
Cc1c(C(=O)Nc2cccc(Cl)c2)oc2ccc(S(=O)(=O)N3CCOCC3)cc12 | -9%
COc1ccccc1N1CCN(C2=Nc3cccc4cccc2c34)CC1 | -7%
CN(C1CCCCC1)S(=O)(=O)c1ccc2c(c1)c(=O)c(C(=O)NCCCN1CCCC1)cn2C | -5%
CCN(CC)S(=O)(=O)c1ccc(N2CCOCC2)c(NC(=O)COc2ccc(OC)cc2)c1 | -1%
COc1cccc(NC(=O)Cn2cc(C(=O)c3ccco3)c3ccccc32)c1 | -11%
